HIV Env fusion: HIV envelope-mediated fusion inhibition | HeLa-JRFL Env/CEM21 cell fusion, luciferase | inhibition, % at 12.3 µM | 360,000 tested, 1.1% active;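 active means mean replicate inhibition score of at least 50 and every replicate individually at or above 50; inconclusive means only one of the two criteria met; inactive means mean below 50 and not all replicates reaching 50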;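 further: 0% = plate neutral controls and 100% = maraviroc near 300 nM; one replicate is shown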
PABP FP inh: blocks human PABP binding to poly(A) RNA | P11940 | fluorescence polarization | inhibition, % at 35 µM | 290,000 tested, 1% active;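 active means 50% or more with normal probe brightness, or confirmed in later tests; inconclusive means above 50% with abnormal brightness, or retests that disagree; inactive means below 50% or failed in later tests; about a fifth of its hits are not listed in these tables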;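 further: calls also rest on retests at 20 µM and on dose response follow-up; controls were probe without protein and protein plus probe with vehicle; some compounds called inactive have numbers as strong as hits; many hits fall short of the cut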
eIF4H FP inh: inhibitors of RNA binding by human eIF4H. inhibition, % at 35 µM. eIF4H fluorescence polarization binding assay. Q15056. 290,000 tested, 0.94% active;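 active means 50% or more with normal probe brightness, or confirmed in later tests; inconclusive means above 50% with abnormal brightness, or retests that disagree; inactive means below 50% or failed in later tests; about a fifth of its hits are not listed in these tables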;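 further: calls also rest on retests at 20 µM and on dose response follow-up; 0% = protein and probe with vehicle and 100% = probe without protein; strong numbers were not always called active; many hits fall short of the cut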
MT1-MMP act inh: inhibitors of human MT1-MMP activation. P50281. HT1080 RFP-PRO-GFP cells, GFP/RFP ratio fluorescence, overnight; percent of plate control window, DMSO zero. GFP/RFP ratio change, % at 20 µM. 360,000 tested, 0.061% active. AID 651647;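 active means GFP/RFP ratio change of at least 30% with cell ATP level not reduced by more than half and red fluorescence within 50% of control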; further: strong numbers were not always called active
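Assay system: HT1080 RFP-PRO-GFP cells. Benchmarks: DMSO vehicle wells and RFP-L50D-GFP reporter cell wells. Times: overnight cell settling, then overnight compound exposure, 37 °C, 5% CO2. Compound: 20 µM single dose, 1% DMSO. Read-out basis: GFP/RFP fluorescence ratio.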
Yeast UUG start: yeast start codon fidelity modulation | S. cerevisiae UUG-firefly luciferase reporter, luminescence/redox ratio | activity score, % at 18.7 µM | 350,000 tested, 0.13% active | AID 602363;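 active means replicate mean at a twofold rise or more, about +100% in these data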;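 further: firefly luciferase made from a UUG start codon reports start codon fidelity; reporter light over untreated wells divided by growth signal over untreated wells; some hits fall short of that in this replicate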
Rce1 inh: blocks yeast Ras-converting enzyme | yeast membranes, quenched prenylated peptide cleavage fluorescence | calls only | 290,000 tested, 0.27% active | AID 2563;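 active means fall in fluorescence gain of 50% or more versus controls, with final raw signal at or below 3038400; inconclusive means same 50% fall but final raw signal above 3038400; inactive means fall in fluorescence gain under 50%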;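 further: plate controls were neutral control wells for no effect and wells lacking membranes for full effect; tested at 10 µM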
Target sequence (Q03530 whole entry, looked up): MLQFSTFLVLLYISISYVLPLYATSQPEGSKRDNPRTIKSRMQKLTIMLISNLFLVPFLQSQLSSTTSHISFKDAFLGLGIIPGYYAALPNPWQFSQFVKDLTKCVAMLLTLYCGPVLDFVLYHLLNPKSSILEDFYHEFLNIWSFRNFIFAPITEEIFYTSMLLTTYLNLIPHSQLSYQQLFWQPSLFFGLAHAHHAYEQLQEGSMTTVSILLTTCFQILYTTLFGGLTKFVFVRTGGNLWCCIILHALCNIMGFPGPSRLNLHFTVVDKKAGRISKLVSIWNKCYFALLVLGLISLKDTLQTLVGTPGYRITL
CSC inhib: blocks cancer stem cells | inhibition, % at 7.5 µM | cancer stem cell-like cells viability, luminescence | 300,000 tested, 1.1% active | AID 2717;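 active means mean at 75% or more and at least half the replicates too; inconclusive means mean and replicates disagree; tested in HMLE shEcad cells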;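 further: 0% = median of negative and 100% = median of positive control wells; the first replicate is given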
MT1-MMP act inh RFP: also measured in MT1-MMP act inh; calls as there; RFP signal change, %; measured here: RFP expression control read;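 0 = vehicle wells; hits needed this value within 50% of zero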
Starred values were filed as active, the others as inactive; i = inactive; ? = inconclusive; · = not tested or not shown.

SMILES | MT1-MMP act inh | Yeast UUG start | MT1-MMP act inh RFP | PABP FP inh | HIV Env fusion | Rce1 inh | CSC inhib | eIF4H FP inh
Cc1cccc(OCC(=O)OCC(=O)c2c(N)n(C)c(=O)n(C)c2=O)c1C | -3 | -11 | 2 | -6 | -76 | i | 7 | -8
O=C1CCCC/C1=C\Nc1ccc(O)cc1 | 7 | -22 | 6 | 18 | · | i | -6 | 2
CC(C)c1ccc(/C=C2\SC(=O)N(CC(=O)NCCCn3ccnc3)C2=O)cc1 | 8 | -14 | -1 | -5 | -53 | i | -14 | -10
Cc1c(CC(=O)O)c(=O)oc2cc3occ(-c4ccccc4)c3cc12 | 4 | 3 | 0 | 12 | 11 | i | -3 | -8
O=C(c1ccc2c(c1)OCO2)N1CCC2(CC1)Oc1ccc(F)cc1C(=O)C21CC(c2ccc(Cl)cc2)=NO1 (stereo not given) | 2 | -15 | -2 | -3 | 23 | i | 25 | -9
CC(C)NC(=O)C1CC(=O)N(c2ccc(F)c(Cl)c2)C1 (stereo not given) | 1 | -13 | 2 | -16 | · | i | -9 | -9
Cc1ccc(-c2nnc(N3CCN(C(=O)COc4cccc(C)c4)CC3)c3ccccc23)cc1 | 0 | · | -16 | -18 | 7 | i | 7 | 4
CC(=O)c1cnc2sccn2c1=O | 4 | -28 | 5 | 36 | -2 | i | -3 | -3
CCN(CC)CCNC(CC(=O)Nc1ccc(Cl)cc1Cl)C(=O)O (stereo not given) | 3 | -14 | 5 | 7 | · | i | -7 | 9
Cc1cccc(C(=O)N2CCCC(Nc3ccc(C)c(C)c3)C2)n1 (stereo not given) | 3 | -23 | 2 | -6 | -8 | i | -15 | -1
CS(=O)(=O)c1ccc(C(=O)OCC(=O)c2ccc(Cl)s2)cc1 | -4 | -16 | 4 | · | · | i | -8 | ·
CSCCC(NC(=O)COc1ccccc1)C(=O)N1CCN(c2ccccc2Cl)CC1 (stereo not given) | 2 | -6 | -2 | · | -12 | i | 25 | ·
COC(=O)[C@@]12CCCN1[C@H](c1ccc(-c3ccc(Cl)c(Cl)c3)cc1)[C@H]1C(=O)N(C)C(=O)[C@H]12 | 0 | -9 | -6 | · | -11 | i | -7 | ·
COc1ccc2oc(-c3ccc(C)c(NC(=O)CSc4ccc(Cl)cc4)c3)nc2c1 | 3 | · | 2 | 3 | · | i | -9 | 16
CCOc1ccccc1N(CC(=O)Nc1ccc(C)cc1)S(C)(=O)=O | -5 | -13 | -6 | -9 | -97 | i | -7 | -2
Cc1[nH]nc(SCC(=O)N2CCCCC2)c1[N+](=O)[O-] | -1 | · | 8 | 3 | -75 | i | -9 | -3
COc1ccccc1NC(=O)C1=C(C)NC(=O)NC1c1ccccc1[N+](=O)[O-] (stereo not given) | -8 | · | -1 | 4 | -11 | i | -15 | 42
O=Cc1ccc(OC(=O)/C=C/c2ccccc2)cc1 | -4 | -24 | -3 | 3 | 10 | i | -5 | -8
CC(=O)C1=C(C)N2CCN=C2S1 | -1 | · | 3 | -8 | 2 | i | · | -16
COc1ccc(N2CCN(C(=O)Cc3nn(C)c(=O)c4ccccc34)CC2)cc1 | 2 | -20 | -8 | -11 | 61* | i | 4 | -6
COc1ccc(CCNC(=O)COC(=O)/C=C/c2cccc(F)c2)cc1 | 2 | -4 | 3 | · | · | · | 4 | ·
COc1ccc(NC(=O)CCC(=O)c2cccs2)cc1S(=O)(=O)Nc1ccc(Cl)cc1 | 1 | · | -5 | 23 | 10 | i | 26 | -8
CCCN1CCC(=O)N([C@H](CSc2ccc(Br)cc2)Cc2ccccc2)CC1 | -1 | -6 | -4 | -4 | 4 | i | 30 | 0
O=C(CCc1nc2ccccc2c(=O)[nH]1)NCc1ccco1 | -2 | · | -6 | -2 | -7 | i | -6 | 2
Cn1c(=O)[nH]c(=O)c2c1nc(N1CCCCC1)n2C/C=N/NC(=O)c1cc(Br)ccc1O | 7 | -5 | 8 | 5 | 0 | i | -6 | 1
CC(OC(=O)C1=COCCO1)C(=O)Nc1ccc(Oc2ccccc2)cc1 (stereo not given) | -1 | -15 | -4 | 0 | -3 | i | 8 | -4
Cc1ccc(-c2ccnc(-c3ccc(O)cc3)n2)cc1 | 8 | · | 5 | -3 | -22 | i | -9 | 5
CCOC(=O)c1[nH]c(C)c(C(=O)N(C)Cc2ccccc2)c1C | -5 | 13 | -4 | -8 | 9 | i | 7 | 2
CN1CCN(C(=O)CSc2nc3ccc(NC(=O)c4ccccc4F)cc3s2)CC1 | 4 | · | 1 | 1 | 1 | i | -11 | -3
CCOc1cc(/C=N/NC(=O)c2cccnc2)ccc1O | 1 | -21 | 0 | 7 | -1 | i | -1 | 3
CC(NC(=O)C1CCN(S(=O)(=O)c2ccc(Br)s2)CC1)c1ccccc1 (stereo not given) | -6 | -10 | -10 | 1 | 3 | · | -4 | 2
CN(CC(=O)Nc1ccc(Cl)cc1)CC(=O)Nc1cccc2ccccc12 | 4 | -8 | 4 | · | -1 | · | 15 | ·
Cc1cc(C)n(-c2ccc(C(=O)OCn3nnc4ccccc4c3=O)cc2)n1 | -3 | -6 | 1 | -2 | · | i | -10 | -12
O=C(Nc1ccccc1C(=O)Nc1ccccn1)c1ccccc1F | 0 | -17 | -1 | 5 | -8 | i | -7 | 6
O=C(Nc1nnc(COc2ccccc2)s1)c1ccco1 | 9 | -14 | 6 | -11 | -97 | i | 9 | 6
Cc1cc(C)cc(NC(=O)C2CCN(C(=O)[C@@H]3Cc4ccccc4CN3)CC2)c1 | 6 | 96 | 5 | 2 | 11 | i | -12 | -2
O=C(COC(=O)Cc1ccc(Cl)cc1)Nc1ccccc1F | 1 | · | 4 | 5 | -12 | i | -10 | -15
CCCCOC(=O)Nc1ccc(S(=O)(=O)Nc2nc(C)cc(C)n2)cc1 | 2 | -15 | 3 | -4 | · | i | · | 11
O=C(O)C1Nc2c(C(F)(F)F)ccc(Cl)c2C2C=CCC12 (stereo not given) | 15 | 27 | 23 | 42 | -11 | i | 10 | 42
COC(=O)C12CCC3(SCCS3)C(C(=O)OC)(CCC13SCCS3)C2 | -1 | 5 | -2 | 18 | · | i | -1 | 3
O=C(CSc1ncc(C(F)(F)F)cc1Cl)NCC1CCCO1 (stereo not given) | -4 | -2 | -4 | -1 | 13 | i | -2 | 2
O=C(Nn1cnnc1)c1ccccc1-c1ccccc1 | 3 | 5 | 2 | 0 | -10 | i | 2 | -2
Cc1cc(-c2nnc(SCC(=O)c3ccc(F)cc3)o2)no1 | 5 | -21 | 2 | -1 | -1 | i | 4 | -7
O=C(O)c1ccc(N2CCCCC2)cc1O | -1 | -8 | 5 | -5 | -2 | i | -1 | 0
CCOC(=O)/C=c1\s/c(=C\c2c(OC)ccc3ccccc23)c(=O)n1CC(=O)NCC1CCCO1 (stereo not given) | · | 11 | · | 26 | · | i | 57 | 19
Cc1nc(SCC(=O)Nc2c(C)n(C)n(-c3ccccc3)c2=O)c2cnn(-c3ccccc3)c2n1 | -6 | 5 | -8 | · | -75 | · | · | ·
O=C(CCn1cccc1)NCCc1ccc(Cl)cc1 | 2 | 0 | 4 | -6 | · | i | -11 | -10
O=c1ccc(=O)n(-c2ccccc2)[nH]1 | 2 | · | 5 | 2 | -5 | i | 7 | -2
CC(=O)Nc1cccc(Oc2nc(C)cc(C)c2C#N)c1 | 5 | 3 | 3 | -4 | -28 | i | 2 | -10
COc1ccc(NC(=O)Cc2ccc(C)c(C)c2)cc1S(=O)(=O)N1CCCCC1 | -1 | · | -10 | · | 11 | · | 0 | ·

(list continues)
SMILES | MT1-MMP act inh | Yeast UUG start | MT1-MMP act inh RFP | PABP FP inh | HIV Env fusion | Rce1 inh | CSC inhib | eIF4H FP inh
CNC(=O)c1ccccc1Sc1ccccc1CO | 0 | -22 | 4 | -8 | 31 | i | -21 | 1
Cc1ccc(C)c(-n2c(=O)c(C#N)cc3c(=O)n4ccccc4nc32)c1 | -8 | · | 4 | -10 | 11 | i | -12 | 46
O=C(CN1CCN(CCC(=O)Nc2ccccc2F)CC1)Nc1ccc(Cl)cc1 | 8 | -2 | 1 | -1 | · | i | 19 | 0
Cc1cc(Cl)cc(C)c1OCCn1ccnc1 | 2 | -7 | 4 | 2 | -16 | i | 9 | -6
Cc1cccc(OCCCC(=O)NC(C)C)c1 | 2 | -8 | -5 | -5 | · | i | -6 | -8
Fc1cccc(CCN2CCNC[C@@H]2Cc2ccccc2)c1 | -1 | -6 | 1 | · | 7 | i | -7 | ·
COc1ccc(NC(=O)COC(=O)COc2cccc(Br)c2)cc1OC | 2 | 0 | 2 | ? | -3 | i | -10 | 1
NC(=O)C[C@H]1NC(=O)[C@H](CCC(=O)O)NC(=O)c2cc([N+](=O)[O-])cc(I)c2NCCC[C@@H](C(N)=O)NC1=O | 1 | 18 | 0 | 8 | -8 | i | -1 | 17
CC/C(=N\NC(=O)CNC(=O)/C=C/c1ccc(OC)cc1)c1ccccc1 | -2 | -6 | 2 | -2 | 7 | · | 5 | -2
COc1ccccc1N(C)S(=O)(=O)c1ccc(C(=O)NCc2ccccc2CN2CCCC2)cc1 | 3 | -8 | -3 | · | 21 | · | · | ·
CNC(=O)c1cc2cc(Br)ccc2s1 | 3 | -12 | 2 | -1 | 4 | i | · | -5
O=C(/C=C/c1cccs1)NNC(=O)c1cccc([N+](=O)[O-])c1 | 4 | -19 | 3 | · | · | · | -10 | ·
Cc1ccc(S(=O)(=O)N2CCCC2C(=O)NCc2ccccc2Cl)cc1 (stereo not given) | 2 | -5 | 2 | 6 | -4 | i | 7 | 12
O=C(NC1CCCC1)C(c1ccccn1)N(C(=O)c1csnn1)C1CC1 (stereo not given) | -1 | -19 | 3 | 4 | -38 | i | -1 | -8
COC(CNC(=O)CCCn1nnnc1CN1CCOCC1)c1cccs1 (stereo not given) | 2 | -24 | 5 | 6 | -4 | i | · | 12
O=C(NCc1cccnc1)c1cccc(C(F)(F)F)c1 | -1 | -16 | 3 | -3 | -64 | i | -6 | -2
O=C(OCc1ccc([N+](=O)[O-])cc1)c1ccc2ccccc2n1 | -3 | · | -1 | -12 | 9 | i | -7 | 3
CCCC(=O)Nc1nc(-c2ccc3c(c2)CCN3S(C)(=O)=O)cs1 | 5 | · | -9 | 8 | · | i | · | -7
O=C(Nc1cccc(-c2cccc(F)c2)c1)C1CCN(C2CCOCC2)CC1 | 1 | 3 | 3 | -14 | 7 | i | -4 | -8
CCOc1[nH]n(-c2ccccc2)c(=O)c1C=Nc1ccc(OC)cc1 | -1 | -3 | -4 | 5 | 1 | i | 18 | -11
CC1(C)Cc2noc(N)c2C(C)(C)N1OC(=O)c1scc2c1OCCO2 | -9 | -19 | 0 | -3 | · | i | 6 | -6
O=C(O)c1cc(N2C(=O)CCC2=O)ccc1NCc1cccnc1 | -1 | -17 | -3 | 12 | -5 | i | -17 | 4
COC(=O)c1sccc1NC(=O)CN(C)NS(=O)(=O)c1ccc(Cl)cc1 | 5 | -8 | 7 | 3 | -85 | i | -10 | -11
O=C(Cn1[nH]c(=O)c2ccccc2c1=O)Nc1cccc(-c2nnc3n2CCCCC3)c1 | -3 | -14 | 2 | -1 | 0 | · | 1 | 1
N#CC(C#SN)=C1CCCCC1 | -6 | -4 | 0 | -3 | · | i | 4 | -4

High-throughput results: PubChem BioAssay, several laboratories
